Screening results from PubChem.
gsp antagonist = antagonizes gsp, the McCune-Albright syndrome mutation; AID 624288; actives 0.4% (n = 340,000); Potency, µM (doses to about 76.9 µM), for inactives: top-dose activity change, negative = inhibition, hits mostly inhibitors; gsp-mutant cells, cAMP HTRF, 30 min; control for the full effect not named in the record; active = falling curve of any shape with a large fitted effect; inconclusive = falling curve, mostly with a smaller effect; inactive = flat or rising curve; cell line not stated here;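 further: intracellular cAMP measured with PDE inhibitor Ro 20-1724 present during compound exposure; potency means the concentration at half of the fitted maximal effect; on the % scale 0 is the no-effect control and ±100 the full control effect; nearly all actives have a fitted effect of over 65% in size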
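Cells in G418 medium, seeded 16-24 h, 37C; buffer exchange to DPBS + 1 mM CaCl2, 0.5 mM MgCl2, 0.05% BSA; cpds in DMSO + […] (300 uM stock), 30 min 37C; HTRF cAMP detection.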
gsp agonist = activates gsp, the McCune-Albright syndrome mutation; actives 0.13% (n = 340,000); gsp mutant cells, cAMP HTRF, 30 min; control for the full effect not named in the record; Potency, µM (series often up to 76.9 µM), inactives show top-dose activation (cAMP increase), most hits filed as activators; active = well fitted activation curve with a large enough effect; inconclusive = small, poorly fitted or top-dose-only effect, or another doubt; inactive = no such curve, though single readings can be large or run the other way; cell line not stated here;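 further: phosphodiesterase inhibitor Ro 20-1724 added with compounds to block cAMP breakdown; potency means the concentration at half of the fitted maximal effect; nearly all actives have a fitted effect of over 60% in size; about a fifth of the inactives were tested at one dose only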
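Cells in DMEM/10% FBS with G418 were pretreated with compounds in DMSO plus […] (300 uM stock) for 30 min at 37C. cAMP was measured by HTRF (cAMP-d2 plus anti-cAMP antibody-K) after 30 min at room temperature.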
ClpP mod = qHTS Assay for Activators of ClpP | ATP-dependent Clp protease proteolytic subunit (Bacillus subtilis (strain 168)), P80244 | purified B. subtilis ClpP, FRET peptide cleavage, 20 min | Potency, µM (series often up to 57.5 µM), for the others: top-dose activity change, negative = active | actives 1.9% (n = 340,000) | AID 651965, 2013; active = well fitted falling curve with a large enough effect; inconclusive = small, poorly fitted or top-dose-only effect; inactive = no such curve, though single readings can be large or run the other way; further: potency means the concentration at half of the fitted maximal effect; the source files actives as falling curves though it sought activators and does not explain the sign; nearly all actives have a fitted effect of over 65% in size; many hits overshoot -100%
Target sequence (P80244 whole entry, looked up): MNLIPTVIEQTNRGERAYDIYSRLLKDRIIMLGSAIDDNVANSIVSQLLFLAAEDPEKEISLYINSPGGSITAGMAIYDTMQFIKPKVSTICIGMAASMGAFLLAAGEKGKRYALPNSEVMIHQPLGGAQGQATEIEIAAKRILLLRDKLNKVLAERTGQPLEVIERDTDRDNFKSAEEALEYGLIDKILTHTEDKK
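FRET quenching reversal measured ClpP activation: 10 microg/mL B. subtilis ClpP at pH 8 with the FRET-FV decapeptide, read at 430 nm after 320 nm excitation. The 20-min minus 0-min signal was scaled between DMSO/no-enzyme wells and ADEP (5.8 microM final).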
TRPML1 blocker = blocks the human TRPML1 channel; Q9GZU1; TRPML1-inducible cells, Ca2+ dye fluorescence, FDSS; active compounds read low; inhibition of EC80 agonist-evoked calcium signal; activity change, negative = inhibition, % (test concentration not listed); actives 0.02% (n = 390,000); in the data active means activity change below about -50%; inconclusive means about -30% to -50%; inactive means above about -30%;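 further: stimulus is agonist 54-4 at its EC80 concentration; on the % scale 0 is the no-effect control and ±100 the full control effect; compound concentration not given in the record; the text of the record puts the active cut at -80%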
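Tet-induced TRPML1-DL cells loaded with Ca8 no-wash calcium dye were read kinetically on FDSS. Compound addition was followed by EC80 agonist 54-4 (4 uM final); inhibition was read over 110 s.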
Menin-MLL FL inh = displaces fluorescein MLL peptide from human menin; 290,000 tested, under 10 active; Fluorescence polarization, fluorescein-MLL peptide displacement from menin; FP activity change, % at 61.4 µM; inconclusive = falling polarisation curve, or a change in total fluorescence; inactive = total fluorescence flat and polarisation flat or rising; no compound was filed as active; the % refers to the polarisation; negative = inhibition;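 further: % of control where 0% means no effect; inhibitors lower the polarisation; unlabelled MLL peptide was the positive control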
Sfp inh = blocks B. subtilis Sfp PPTase activity. Q9F4F7. Potency, µM, without a hit: max response, negative = inhibition, most hits filed as inhibitors. Biochemical Sfp PPTase activity, qHTS. actives 3.5% (n = 310,000); active means well fitted inhibition curve with a large enough effect; inconclusive means small, poorly fitted or top-dose-only effect, or another doubt; inactive means no such curve, though single readings can be large or run the other way;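 further: the enzyme is Sfp with the accession as filed and its product quenches rhodamine fluorescence; potency means the concentration at half of the fitted maximal effect; 0% = enzyme reaction without inhibitor and -100% = no enzyme wells; top concentration of the series not given in the record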
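Sfp 15 nM + cpd, 15 min RT; start w/ rhodamine-CoA 5 uM, BHQ-2-YbbR 12.5 uM (final); 50 mM Hepes pH 7.6, 10 mM MgCl2, 0.01% NP-40, 0.01% BSA; read 525/598 nm at 0 and 30 min.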
TRPV1 PAM = human TRPV1 potentiation; potentiation, % at 8.33 µM; Q8NER1; AID 540277; TRPV1-expressing cells, Fluo-8 calcium influx, capsaicin EC20 potentiation; host cell line not named in the record; control for the full effect not named in the record; actives 0.02% (n = 320,000); active means potentiation above 80%; inconclusive means 30% to 80%; inactive means below 30%; further: 0% is about no effect
Target sequence (Q8NER1 whole entry, looked up): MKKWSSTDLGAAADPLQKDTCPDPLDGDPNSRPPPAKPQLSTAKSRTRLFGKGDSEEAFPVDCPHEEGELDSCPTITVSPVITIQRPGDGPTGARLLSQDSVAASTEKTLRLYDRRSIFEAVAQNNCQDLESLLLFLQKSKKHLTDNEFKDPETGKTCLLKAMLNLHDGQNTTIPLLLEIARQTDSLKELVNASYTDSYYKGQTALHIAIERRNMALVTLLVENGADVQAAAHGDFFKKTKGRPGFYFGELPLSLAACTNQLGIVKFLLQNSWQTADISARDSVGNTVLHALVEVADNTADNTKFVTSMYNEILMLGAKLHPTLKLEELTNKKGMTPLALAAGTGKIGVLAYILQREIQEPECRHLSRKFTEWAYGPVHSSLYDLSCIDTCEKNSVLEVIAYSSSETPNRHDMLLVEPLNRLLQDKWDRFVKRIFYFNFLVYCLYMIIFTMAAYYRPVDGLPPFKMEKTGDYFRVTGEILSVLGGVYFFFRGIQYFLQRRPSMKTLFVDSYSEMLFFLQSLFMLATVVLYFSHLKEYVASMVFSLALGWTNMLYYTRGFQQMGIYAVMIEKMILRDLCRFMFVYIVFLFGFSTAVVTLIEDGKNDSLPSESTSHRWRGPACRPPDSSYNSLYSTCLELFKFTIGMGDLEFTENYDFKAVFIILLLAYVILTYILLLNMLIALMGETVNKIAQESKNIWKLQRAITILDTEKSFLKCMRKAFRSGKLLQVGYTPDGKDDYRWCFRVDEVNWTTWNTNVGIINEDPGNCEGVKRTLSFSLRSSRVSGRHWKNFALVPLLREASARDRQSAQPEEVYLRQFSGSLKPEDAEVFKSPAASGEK
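Fluo-8 calcium influx in TRPV1-expressing cells, kinetic read (ex 480/em 520 nm). Compound added and read 3 min for agonist activity, followed by capsaicin at EC20 final and 2 min further read for enhancement.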
* hit, by the source's call; ? = inconclusive; . = no result given; & = joins results of further samples; [ ] = dose if it differs, or a comment.

item	compound	gsp antagonist	gsp agonist	ClpP mod	TRPML1 blocker
1	C/C(=N\NC(=O)c1cccc(S(=O)(=O)N2CCCC2)c1)c1ccco1	.	17%[15.4 µM]	.	-14
2	COC(=O)c1sc(S(=O)(=O)NCCC(=O)O)c(C(=O)OC)c1C	-6%	0%	.	0
3	Cc1ccc(N(Cc2cc(=O)[nH]c3ccccc23)C(=O)CCl)cc1	-2%	?	-6.4%	-3
4	O=C(c1ccc(Br)o1)N1CCN(c2ccccc2F)CC1	10%	-6%	-0.1%	-5
5	Cc1cc(NC(=O)C(C)(C)C)no1	8%	25%	-0.7%	-5
6	O=C(CO/N=C/c1c(Cl)cccc1Cl)NNC(=O)c1ccc(Cl)cc1	3%	1%[15.4 µM]	.	-2
7	O=C1COc2ccc(-c3n[nH]c(=O)c4ccccc34)cc2N1	1%	16%[15.4 µM]	.	1
8	C=CCn1c(=O)c2ccccc2n2c(SCC(C)=O)nnc12	2%	-6%	.	7
9	CCOC(=O)C1CCN(S(=O)(=O)c2ccc3c(c2)NC(=O)C(C)C(=O)N3)CC1 (centres undefined)	4%	-37%[inhibitor]	-0.2%&0.7%	-2&23
10	Oc1ccc(/C=N/NC2=NCCCCC2)cc1	9%	-35%[inhibitor]	-9.5%	-8
11	CCC(C)CCN1C(N(C)C)=NC[C@@H]1C (some centres undefined)	6%	22%	-1.8%	-6
12	CCn1cc(C(=O)OCC(=O)Nc2ccc(C(C)C)cc2)c(=O)c2ccc(C)nc21	8%	?	.	-5

item	Menin-MLL FL inh	Sfp inh	TRPV1 PAM
1	3.3	6%	7
2	-1.8	5%	-7
3	-3.4	-26%	0
4	-5.5	?	4
5	1.2	4%	3
6	-1.6	11%	26
7	-0.7	12%	20
8	-6.8	15%	14
9	2.8	7%	-17
10	2.6	5%	14
11	.	.	11
12	-0.2	-5%	-2

The list continues:
item	compound	gsp antagonist	gsp agonist	ClpP mod	TRPML1 blocker
13	COC(=O)C1=C[C@@H](C(=O)OC)C2C3=C(C(=O)[C@@]2(C)NC(=O)c2ccccc2)[C@H](C)[C@@H]2C(=O)NC(=O)[C@@H]2[C@@H]3C1 (some centres undefined)	.	.	.	21
14	CN1C(=O)CSc2ccc(NC(=O)N3CCN(c4ccccc4)CC3)cc21	-31%	-10%[15.4 µM]	.	8
15	COc1cc(/C=C2/C(=N)N3N=C(C(C)C)SC3=NC2=O)ccc1OS(=O)(=O)c1ccccc1	-16%	?	.	12
16	O=C(CSCc1c(F)cccc1Cl)Nc1cccnc1	3%	23%[15.4 µM]	.	-4
17	COc1cc(C(=O)Nc2cccnc2)cc(OC)c1OC	1%	-1%[15.4 µM]	-0.4%	8
18	Cc1cc(/C=C(\C#N)C(=O)N2CCCCC2)cc(C)c1O	-9%	20%	.	?
19	CCN(CC)C(=O)C1=C(C)N(Cc2ccccc2)C(=O)C(CC(=O)NCc2cccs2)C1 (centres undefined)	.	-6%	-0.4%	-2
20	COc1ccc(Cl)cc1NC(=O)CNc1ccccc1CN(C)C1CCCCC1	-1%	10%[15.4 µM]	.	57
21	CN1CCN(C(=O)/C(=C\c2cccs2)NC(=O)c2cccs2)CC1	6%	-2%[15.4 µM]	0.9%	-16
22	O=C1C(Nc2ccccc2)=C(N2CCCCC2)C(=O)c2ccccc21	10%	-1%	9.8%	-4
23	O=C(Cn1nnc2ccccc2c1=O)NCCc1ccc(Cl)cc1Cl	2%	-2%	-0.2%	6
24	C=CCN(C(=O)c1cccc(N2C(=O)C3CC=CC(C)C3C2=O)c1)c1ccccc1 (centres undefined)	-14%	29%[15.4 µM]	.	-6

item	Menin-MLL FL inh	Sfp inh	TRPV1 PAM
13	-12	2%	.
14	-0.3	2%	-33
15	5.8	-7%	?
16	0.0	19%	-19
17	2.2	16%	-9
18	.	11%	-2
19	.	.	.
20	1.1	-1%	-7
21	11	-3%	7
22	-2.2	-1%	-7
23	0.5	0%	1
24	3.7	-6%	15

Overlap with the part before: 5 compounds, then new ones.
item	compound	gsp antagonist	gsp agonist	ClpP mod	TRPML1 blocker
20	COc1ccc(Cl)cc1NC(=O)CNc1ccccc1CN(C)C1CCCCC1	-1%	10%[15.4 µM]	.	57
21	CN1CCN(C(=O)/C(=C\c2cccs2)NC(=O)c2cccs2)CC1	6%	-2%[15.4 µM]	0.9%	-16
22	O=C1C(Nc2ccccc2)=C(N2CCCCC2)C(=O)c2ccccc21	10%	-1%	9.8%	-4
23	O=C(Cn1nnc2ccccc2c1=O)NCCc1ccc(Cl)cc1Cl	2%	-2%	-0.2%	6
24	C=CCN(C(=O)c1cccc(N2C(=O)C3CC=CC(C)C3C2=O)c1)c1ccccc1 (centres undefined)	-14%	29%[15.4 µM]	.	-6
25	CN=c1scc(-c2ccccc2F)n1/N=C/c1ccc[nH]1	0%	?	.	2
26	Cc1cc(C)cc(-c2nnc(SCC(=O)NC3CC3)o2)c1	-21%	-1%	1.8%	3
27	CC(C)(C)c1ccc(C(=O)NCc2ccco2)cc1	12%	8%	-0.1%	-2
28	CCCCNC(=O)CN1C(=O)NC2NC(=O)NC21 (centres undefined)	6%	7%	2.1%	-11
29	CCCCNC(=O)[C@@H]1CC=C[C@@H]2CCN(Cc3ccc(Cl)c(Cl)c3)C(=O)[C@@H]21	-16%	-5%	0.1%&-0.3%	0
30	Cn1ncc(C#N)c1NC(=O)C1CC(c2ccc(Cl)c(Cl)c2)=NO1 (centres undefined)	-25%	20%	0.4%	-3
31	COc1cc(NC(=O)CN2C(=O)C(C)N(c3ccc(C)cc3)C2=O)cc(OC)c1 (centres undefined)	-1%	30%	-0.9%	-3
32	COc1cc2c(=O)n(CC3CCCO3)c(=O)n(CC(=O)Nc3cccc(Cl)c3)c2cc1OC (centres undefined)	0%	-27%	32µM*	35
33	CCc1ccccc1NC(=S)N(Cc1cccc(C)c1)c1cccnc1	4%	0%[15.4 µM]	.	10
34	Cc1ccc(CSCC(=O)N(C)CC(=O)Nc2ccccc2C(F)(F)F)cc1	0%	-9%[15.4 µM]	-1.0%	14
35	COCCN1C(=O)c2oc3ccccc3c(=O)c2C1c1ccc(OC)c(OC)c1 (centres undefined)	8%	-19%	-0.5%	30
36	O=S(=O)(Cc1noc(-c2ccc(Cl)cc2)n1)Cc1ccco1	3%	8%	.	-13

item	Menin-MLL FL inh	Sfp inh	TRPV1 PAM
20	1.1	-1%	-7
21	11	-3%	7
22	-2.2	-1%	-7
23	0.5	0%	1
24	3.7	-6%	15
25	?	-7%	2
26	.	.	-9
27	.	.	.
28	3.1	-3%	-6
29	.	.	.
30	-1.5	-4%	-9
31	.	.	8
32	2.4	6%	12
33	2.4	7%	-18
34	.	.	1
35	-0.2	8%	17
36	?	4µM*	14

(further entries)
item	compound	gsp antagonist	gsp agonist	ClpP mod	TRPML1 blocker
37	O=C(COC(=O)/C=C/c1ccc(Br)o1)NCCCN1CCCC1=O	-1%	-19%	.	-15
38	COc1cc2ncnc(NCc3cccc(F)c3F)c2cc1OC	3%	-24%	-18%	-20
39	OC(COc1ccc2ccccc2c1)CN1CCCC1 (centres undefined)	8%	-24%	-1.1%	8
40	O=C(CN(CCO)c1ccccc1)Nc1cccc(S(=O)(=O)N2CCCC2)c1	-5%	4%	.	1
41	COc1ccc(NC(=O)Nc2ccc3c(c2)C(=O)N([C@H](C)CO)C[C@H](C)[C@H](CN(C)Cc2ccc(C(=O)O)cc2)OCCCC[C@@H](C)O3)cc1	.	-57%[inhibitor]	0.7%	29
42	Cc1cc(=O)[nH]c2ccc(S(=O)(=O)Nc3ccc(O)cc3)cc12	-1%	-56%[inhibitor]	-4.6%	.
43	Cc1cc(C(=O)CSc2nnc(-c3ccco3)o2)c(C)n1-c1ccc2c(c1)OCCO2	-21%	10%	-2.0%	-2
44	COc1cc(OC)c(OC)cc1/C=N/Nc1ncnc2c1[nH]c1ccccc12	-20%	-8%	-19%	0
45	COc1cccc(OCc2cc(C(=O)N3CCN(c4ccccc4OC)CC3)no2)c1	-1%	?	0.2%	-3
46	CCOc1ccc(N2CC(C(=O)Nc3ccc(F)cc3F)CC2=O)cc1 (centres undefined)	5%	20%[15.4 µM]	0.5%	-19
47	CC(OC(=O)c1ccc(NS(=O)(=O)c2ccc3[nH]c(=O)[nH]c3c2)cc1)C(=O)Nc1ccc(Cl)cc1 (centres undefined)	-8%	-1%[15.4 µM]	-2.7%	5
48	CC(=O)N1CCN(S(=O)(=O)c2cccc(C(=O)NNC(=O)Cn3nc(C)cc3C)c2)CC1	9%	-15%	2.2%	-11
49	Cc1cccc2cc(CN(Cc3ccco3)C(=O)c3ccco3)c(=O)[nH]c12	-3%	-24%	.	-13
50	CCOC(=O)c1ccccc1NC(=O)c1ccccc1NS(C)(=O)=O	-11%	-35%[inhibitor]	35µM*	5

item	Menin-MLL FL inh	Sfp inh	TRPV1 PAM
37	1.4	22%	1
38	0.0	-1%	11
39	-0.3	-2%	2
40	0.3	10%	0
41	.	.	.
42	-2.7	-6%	-2
43	1.7	-23%	25
44	-0.8	3%	9
45	5.4	-2%	1
46	-3.0	5%	4
47	0.9	14%	12
48	.	.	2
49	4.4	25%	-3
50	-2.5	-16%	-3
